Compound activity: PubChem, National Center for Advancing Translational Sciences (NCATS)
LASV entry inh: inhibitors of Lassa virus binding or cell entry. Lassa virus pseudotype entry inhibition, cell reporter; control for the full effect not named in the record. Potency, µM (top dose mostly 37.9 µM), for inactives: at the highest dose activity change, negative = inhibition, actives largely listed as inhibitors. hit rate 1.2% among 300,000. AID 540256; active means well fitted inhibition curve with a large enough effect; inconclusive means small, poorly fitted or top-dose-only effect, or effect the other way; inactive means flat fitted curve, though single readings scatter; tested in HEK293 cells; also: % is scaled to controls: 0 for no effect and ±100 for the full control effect; nearly all actives have a fitted effect of over 50% in size; luciferase read-out
2A StopGo: lowers the luciferase signal of an FMDV 2A StopGo reporter | Potency, µM (doses to about 57.9 µM), inactives show at the top dose signal change, negative = less light | human cells with a luciferase reporter of 2A StopGo recoding; control for the full effect not named in the record | hit rate 1.2% among 410,000 | AID 1159524; active = well fitted falling curve with a large enough effect; inconclusive = small, poorly fitted or top-dose-only effect; inactive = no such curve, though single readings can be large or run the other way; tested in HEK293T cells; also: % is scaled to controls: 0 for no effect and ±100 for the full control effect; nearly all actives have a fitted effect of over 45% in size; luciferase light after 4 h
Cruzain inh noDet: blocks cruzain activity in detergent-free assay; P25779; purified cruzain, Z-FR-AMC fluorescence, no detergent; Potency, µM, without a hit: max response, negative = inhibition, hits mostly inhibitors; hit rate 2.3% among 200,000; AID 1476; active = well fitted curve in the direction sought with a large enough effect; inconclusive = small, poorly fitted or top-dose-only effect, or another doubt; inactive = no such curve, though single readings can be large; an effect the other way counts as inactive or inconclusive;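 also: plate controls were enzyme without inhibitor for no effect and buffer without enzyme for full effect; nearly all actives have a fitted effect of over 40% in size; top concentration of the series not given in the record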
Target sequence (P25779 123-467 limits assumed): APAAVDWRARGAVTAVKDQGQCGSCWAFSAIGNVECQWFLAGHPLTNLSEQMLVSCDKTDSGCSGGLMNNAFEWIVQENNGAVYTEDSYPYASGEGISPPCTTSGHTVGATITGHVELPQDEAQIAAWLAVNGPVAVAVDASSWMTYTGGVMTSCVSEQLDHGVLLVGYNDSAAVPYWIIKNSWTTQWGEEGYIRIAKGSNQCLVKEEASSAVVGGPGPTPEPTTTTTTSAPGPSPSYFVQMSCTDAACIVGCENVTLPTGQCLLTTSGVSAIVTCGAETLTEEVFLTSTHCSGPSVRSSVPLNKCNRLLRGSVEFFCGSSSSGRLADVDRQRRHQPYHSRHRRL
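Detergent-free condition (0.00005% Triton X-100) in acetate buffer pH 5.5 with DTT. 1.5 nM enzyme and compound were pre-mixed 15 min, then 2 uM Z-FR-AMC substrate added; reaction progress from fluorescence change between first and third reads (60 s).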
Marburg entry inh: blocks Marburg virus binding to or entry into cells. Marburg virus pseudotyped entry inhibition, cell reporter; control for the full effect not named in the record; about a third of the inactives were read at about 46 µM. Potency, µM (titrated, usually from 37.8 µM), inactives show at the top dose activity change, negative = inhibition, hits mostly inhibitors. hit rate 1.8% among 300,000. AID 540276; active = well fitted inhibition curve with a large enough effect; inconclusive = small, poorly fitted or top-dose-only effect, or effect the other way; inactive = flat fitted curve, though single readings scatter; tested in HEK293 cells; about a fifth of its hits are not listed in these tables; also: % is scaled to controls: 0 for no effect and ±100 for the full control effect; luciferase read-out
SARS PLpro yeast: SARS-CoV PLP inhibition in yeast; S. cerevisiae expressing SARS-CoV PLpro, growth rescue; control for the full effect not named in the record; Potency, µM (doses to about 32.9 µM), inactives show top-dose activity, positive = growth rescue; hit rate 0.19% among 330,000; AID 485353; also: 0% is about no effect; nearly all actives have a fitted effect of over 55% in size; growth read by luminescence after 48 h
Cruzain Triton: cruzain (T. cruzi) inhibition with detergent; Potency, µM, inactives show max response, negative = inhibition, most hits filed as inhibitors; purified cruzain, Z-FR-AMC fluorescence, 0.01% Triton; hit rate 0.43% among 200,000; active = well fitted curve in the direction sought with a large enough effect; inconclusive = small, poorly fitted or top-dose-only effect, or another doubt; inactive = no such curve, though single readings can be large; an effect the other way counts as inactive or inconclusive;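 also: plate controls were neutral wells for no effect and buffer without enzyme for full effect; nearly all actives have a fitted effect of over 40% in size; top concentration of the series not given in the record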
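Cysteine protease activity tested under reducing, mildly acidic conditions (100 mM sodium acetate pH 5.5, 5 mM DTT) plus 0.01% Triton X-100. Cruzain 1.5 nM; substrate Z-FR-AMC 2 uM; 15 min compound preincubation at room temperature.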
RE007 growth inh: less growth of the S. pombe RE007 Vpr strain; S. pombe RE007 Vpr strain, BacTiter-Glo ATP luminescence, 24 h; control for the full effect not named in the record; Potency, µM (titrated, usually from 92.2 µM), inactives show at the top dose activity change, negative = less growth; hit rate 0.21% among 360,000; active = well fitted falling curve with a large enough effect; inconclusive = small, poorly fitted or top-dose-only effect; inactive = no such curve, though single readings can be large or run the other way;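 also: % is scaled to controls: 0 for no effect and ±100 for the full control effect; nearly all actives have a fitted effect of over 50% in size; the assay follows cell death caused by Vpr and the record does not say whether a fall means rescue or toxicity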
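Fission yeast strain RE007, carrying one chromosomally integrated HIV-1 vpr copy, was seeded at OD 0.01 in PMG+AL medium with 23 nL pinned compound. After 24 h at 30 °C and 99% humidity, viability was read by BacTiter-Glo luminescence.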
NS1 inh: influenza NS1 inhibition. S. cerevisiae slowed by influenza A NS1, growth recovery by OD600. Potency, µM (titrated, usually from 46.1 µM), without a hit: top-dose activity, positive = more growth. hit rate 0.4% among 270,000; also: actives are rising curves; nearly all actives have a fitted effect of over 50% in size
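OD600 was taken as the measure of yeast growth restored by compound in an NS1-expressing S. cerevisiae strain. Cells had been washed out of glucose medium and diluted 1:100 into galactose -URA medium, pH 6.0.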
Active calls of the source: *; ? = inconclusive; nt = not tested or not shown; & = joins results of further samples; [ ] = remark or other dose. Unless noted, calls follow the shape of the dose curve; as a rule, active means well fitted rising curve with a large enough effect; inconclusive means small, poorly fitted or top-dose-only effect; inactive means no such curve, though single readings can be large or run the other way. Potency is read from the fitted curve at half-maximal effect.

SMILES	LASV entry inh	2A StopGo	Cruzain inh noDet	Marburg entry inh	SARS PLpro yeast	Cruzain Triton	RE007 growth inh	NS1 inh
Cc1ccc(NC2CCCN(C(=O)c3cn(C)c4ccccc34)C2)cc1C (configuration not stated)	18%	-12%	nt	-21%	1%	nt	-5%	6%
Cc1c(NC(=S)N/C(=N/S(=O)(=O)c2ccccc2)c2ccccc2)c(=O)n(-c2ccccc2)n1C	nt	-8%	nt	nt	1%	nt	14%	4%
COc1ccc(OC)c2sc(N(CCN(C)C)C(=O)c3ccc4ccccc4c3)nc12	5%	-13%	nt	?	-13%	nt	2%	-50%
O=C(NNS(=O)(=O)c1ccccc1)c1cccc([N+](=O)[O-])c1	?	45%[activator]	nt	2%	?	nt	-12%	20%
CS(=O)(=O)N1CCCC(C(=O)NCc2ccc(F)cc2)C1 (configuration not stated)	-2%	14%	7%	6%	1%	4.1%	0%	-10%
CCn1c(CN2CCOCC2)nc2cc(NC(=O)c3ccc([N+](=O)[O-])cc3)ccc21	-18%[46.1 µM]	?	-25%	?	nt	-11%	nt	nt
O=C(CCn1nc(-c2ccc(Cl)cc2)c2ccccc2c1=O)Nc1cccnc1	-2%[46.1 µM]	-15%	nt	?	0%	nt	4%	-8%
CC(=NCCCn1ccnc1)c1c(O)n(C2CCCCC2)c(=O)[nH]c1=O	nt	-9%	nt	nt	1%	nt	0%	4%
O=C(c1ccc2c(c1)OCO2)C1CCCN(Cc2ccccn2)C1 (configuration not stated)	1%[46.1 µM]	-26%	nt	-11%[46.1 µM]	0%	nt	-3%	2%
CC1=C(C(=O)Nc2ccc(C)cc2C)C(c2ccccc2C)n2ncnc2N1 (configuration not stated)	-15%[46.1 µM]	1%	-11%	nt	nt	-0.6%	nt	nt
CCOc1ccccc1NC(=O)CSc1nc2nc(-c3cccs3)cc(C(F)(F)F)c2c(=O)[nH]1	nt	?	nt	nt	-3%	nt	-5%	13%
O=C(CSc1ccc(-c2cccs2)nn1)NCCc1ccccc1	0%	-3%	nt	?	2%	nt	-7%	5%
COc1ccc(Cc2nc3ccc(C(=O)N4CCCCC4CCO)cc3o2)cc1 (configuration not stated)	nt	0%	nt	nt	29%	nt	2%	-8%
CC(=O)Nc1c(-c2ccc(F)cc2)nc2ccccn12	nt	1%	-5%	nt	-9%	1.2%	15%	13%
CCOc1cc(/C=N/NC(=O)c2ccc3c(c2)OCCO3)cc(Br)c1O	?	51%[activator]	nt	-16%[46.1 µM]	1%	nt	-4%	-6%
O=C(O)c1ccc(OCC(O)Cn2cnc3ccccc32)cc1 (configuration not stated)	0%	-2%	-3%	0%	nt	-0.3%	2%	1%
COc1cccc(/C=C/C(=O)OCC(=O)Nc2ccccc2Sc2ccccc2)c1	-6%[46.1 µM]	-6%	-27%	-11%	17%	-5.3%	14%	-12%
CSc1ccc(CN2CCC(CO)(CCOc3ccccc3)CC2)cc1	nt	?	nt	nt	-5%	nt	-1%	-22%
CCN(Cc1ccccc1)C(=O)c1ccc2c(=O)n3c(nc2c1)CCC3	14%	10%	nt	?	-2%	nt	13%	nt
COc1ccccc1-c1noc(-c2ccccc2C(=O)Nc2cccnc2)n1	-19%	-6%	8%	-19%	2%	2.5%	-7%	-4%
Cc1ccccc1NC(=O)c1onc2c1CCCC2	?	4%	0%	-17%	-14%	-0.4%	5µM*	-8%
Brc1ccc(-c2csc(-c3ccncc3)n2)cc1	6%	52%[activator]	3%	?	-34%	-1.5%	-7%	-13%
COc1ccccc1NS(=O)(=O)c1cccc(C(=O)N2CCCCCCC2)c1	-30%	17%	nt	12%	-6%	nt	8%	nt
Cc1ccccc1C(=O)Nc1ccccc1N1CCN(C(=O)c2ccccc2)CC1	?	-17%	nt	?	-4%	nt	12%	-8%
CSc1nnc2c(n1)OC(c1ccsc1)N(C(C)=O)c1ccccc1-2 (configuration not stated)	-5%	0%	-12%	8%	6%	-2.2%	1%	-1%
CC(C)OCCCNC(=O)C1CCN(S(=O)(=O)N2CCCC2)CC1	-13%	-10%	nt	3%	1%	nt	2%	nt
CC(=O)Nc1ccc(Nc2cc(N3CCOCC3)c3nonc3c2[N+](=O)[O-])cc1	nt	?	nt	-29%[46.1 µM]	2%	nt	18%	nt
Cc1cc(N(C)C)c(C#N)c(N2CCCCC2)n1	-4%	1%	9%	5%	1%	2.8%	3%	-17%
CC(C)CN(C(=O)COC(=O)c1nc(Cl)ccc1Cl)C1CCS(=O)(=O)C1 (configuration not stated)	nt	-1%	nt	11%[46.1 µM]	6%	nt	-14%	nt
COc1ccc(C(=O)Nc2ccncc2)c(OC)c1	-19%	2%	nt	-10%[46.1 µM]	0%	nt	-12%	-5%
Nc1ccc(C23CC4CC(CC(O)(C4)C2)C3)cc1	2%	-19%	-3%	?	-2%	2.1%	-1%	12%
COc1cc(/C=C2\SC(=S)N(NC(=O)c3ccc(O)c(OC)c3)C2=O)ccc1O	-26%[46.1 µM]	10%	nt	-12%[46.1 µM]	2%	nt	6%	3%
CCOc1ccc(NC(=O)c2cc3c(C)nn(-c4ccccc4)c3s2)cc1	-2%[46.1 µM]	?	5%	12%[46.1 µM]	nt	-3.9%	nt	nt
CCC(C)c1ccccc1NC(=O)C1CCCO1 (configuration not stated)	0%	6%	5%	10%	1%	0.2%	5%	4%
CCc1ccccc1NC(=O)Nc1cc(F)ccc1F	nt	5%	nt	nt	-2%	nt	-2%	-5%
Cc1ccc(NS(=O)(=O)c2cc(C(=O)NCc3ccccn3)ccc2Cl)cc1C	?	nt	-6%	-4%	-8%	2.6%	-3%	-6%
Cc1ccc(C(=O)NCC#N)cc1	-14%	-1%	nt	?	1%	nt	71%	nt
CCCNC(=O)c1ccc(N2CC3CC(C2)c2cccc(=O)n2C3)c(NC(=O)Nc2ccc(CC)cc2)c1 (configuration not stated)	nt	-3%	nt	nt	0%	nt	6%	15%
N#Cc1c(NC(=S)NC(=O)c2ccccc2)sc2c1CCCC2	?	32%[activator]	-24%	?	-7%	-3.2%	6%	?
COc1ccc(C(=O)Oc2ccc(C(=S)N3CCOCC3)cc2)cc1	14%[46.1 µM]	2%	nt	15%[46.1 µM]	-1%	nt	12%	-6%
CCn1c(=O)cc(OCC(=O)Nc2ccc3c(c2)OCCO3)c2ccccc21	12%	-27%	11%	6%	1%	-2.8%	14%	-3%
CCOC(=O)C1(C)NC(c2ccc(O)cc2)C2C(=O)N(c3ccccc3)C(=O)C21 (configuration not stated)	nt	-1%	nt	nt	0%	nt	-1%	9%
Cc1cc(N2CCCCCC2)nc(-c2ccccc2O)n1	?	-22%	-9%	?	-12%	-9.4%	-6%	-47%
CCn1c(CC(=O)Nc2ccccc2)nnc1SCC(=O)Nc1ccccc1C(=O)OC	-9%	-3%	-6%	15%&15%	-1%	-3.2%	0%	-4%
CCOC(=O)c1c(C)[nH]c(C(=O)COC(=O)c2ccc([N+](=O)[O-])o2)c1C	-21%	-3%	nt	5%	-11%	nt	-8%	nt
COc1cccc(CC(=O)OCC(=O)NC2(C#N)CCCCC2)c1	5%	-13%	nt	15%	4%	nt	3%	nt
CCN(C(=S)NCc1ccccc1)c1cccc2ccccc12	?	-6%	nt	?	-7%	nt	0%	nt
CCOC(=O)N1CCN(C(=O)CCCn2c(=O)[nH]c3ccccc3c2=O)CC1	-17%	24%	1%	-3%	-5%	1.2%	2%	-5%
CCOC(=O)C1(CCOC)CCN(Cc2ccc(COC)o2)CC1	-8%	-11%	nt	-3%[46.1 µM]	-1%	nt	-2%	17%
CC1CN(C(=O)CCC(=O)NCc2ccccc2)c2ccccc2O1 (configuration not stated)	nt	-23%	nt	nt	6%	nt	3%	-13%
Cc1ccc(SCCNCc2ccco2)cc1	nt	0%	nt	nt	-1%	nt	-6%	-9%
Cc1cc2cc(CN(Cc3ccco3)C(=S)NCC3CCCO3)c(=O)[nH]c2cc1C (configuration not stated)	2%	?	10%	?	-9%	-8.8%	-4%	14%
O=C(Nc1ccccc1)c1ccc(N2CCN(c3ccccc3)CC2)c(S(=O)(=O)N2CCOCC2)c1	23%	12%	-17%	-4%	-2%	-2.5%	-11%[3.69 µM]	20%
COc1cccc(SCc2noc(C(=O)NC(C)C)c2C(=O)O)c1	nt	-7%	-3%	nt	3%	2.4%	12%	14%
Cc1ccc(NC(=S)NCCN2CCOCC2)cc1F	23%[46.1 µM]	-1%	nt	19%[46.1 µM]	1%	nt	2%	3%
OC(COC1CCCCC1)CN1CCCCC1 (configuration not stated)	19%[46.1 µM]	-20%	nt	1%[46.1 µM]	6%	nt	12%	11%
CCCc1nc2oc3c(Cl)ncnc3c2c2c1CCCC2	4%	14µM*	nt	-3%[46.1 µM]	-1%	nt	-10%	-4%
COc1ccc(CNC(=O)C2CC(C)=C(C)CC2C(=O)O)cc1 (configuration not stated)	12%	4%	?	21%	-2%	3.3%	-1%	3%
CC1CCN(C(=O)c2cc(F)c(F)cc2Cl)CC1	-5%	-8%	-1%	6%	-1%	-2.9%	1%	2%
O=C(CCn1nc(-c2ccccc2)ccc1=O)N1CCOCC1	15%	0%	1%	11%	2%	0.4%	2%	-4%

Continued.
SMILES	LASV entry inh	2A StopGo	Cruzain inh noDet	Marburg entry inh	SARS PLpro yeast	Cruzain Triton	RE007 growth inh	NS1 inh
Cc1ccc(NC(=O)CSc2nc3ccccc3c3nc(CCn4cncc4C)nn23)cc1F	?	0%	6%	nt	nt	2.2%	nt	nt
CCNc1cc(O)ccc1C	nt	-13%	-10%	nt	-20%	9.7%	-17%	nt
CC(C)C(O)C1CCN(Cc2nc(-c3cccs3)no2)CC1 (configuration not stated)	-15%	16%	nt	-27%[46.1 µM]	-3%	nt	3%	-8%
O=C(c1n[nH]c2ccccc12)N1CCOCC1	nt	9%	nt	nt	-1%	nt	-4%	7%
O=C(c1ccc(Cl)cc1Cl)N1CCC(c2nc3c(nnn3Cc3ccco3)c(=O)[nH]2)CC1	?	-26%	?	?	-1%	-3.3%	20%	-6%
COc1ccc(NC(=O)Cc2coc3ccc4ccccc4c23)cc1S(=O)(=O)N1CCOCC1	?	-17%	?	?	-17%	-14%	-3%	15%
